Assay outcomes (PubChem BioAssay)
GSIS activator = GLuc luminescence reporter in INS-1E cells, primary screen for activators of glucose-dependent secretion of insulin; INS-1E GLuc reporter insulin secretion, 2-3 h; activation, % at 16.6 µM; 370,000 tested, 0.61% active;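 active = lowest replicate activation of at least 40%, so every replicate reaches that level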;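 note: 0% = median of neutral control wells and 100% = median of IBMX positive control wells; some compounds called inactive have numbers as strong as hits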
CFTR F508del cor = F508del CFTR correction, initial screen, CFBE line, single point; CFBE cells, YFP halide quenching; stimulated with forskolin plus potentiator P3; % fluorescence drop versus neutral controls; activity (quench increase), % at 7.58 µM; AID 720511, 2013; 350,000 tested, 0.36% active;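 active = mean added fluorescence quench of at least 8% versus neutral control, with both replicates also reaching 8%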;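 note: cells transiently co-express mutant CFTR-F508del with the halide-sensitive YFP; corrector assay measuring rescue of mutant channel to the surface after 24 h compound exposure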
Xi reactivation = activators of inactive X chromosome reactivation, primary screen, imaging, XiGFP fibroblasts, GFP high-content imaging, set 2; XiGFP mouse fibroblasts, % GFP-positive cells imaging, 3 d; cells co-treated with 5-aza-dC sensitizer; scaled so ellipticine positive control = 100%; activation, % at 7.58 µM; 360,000 tested, 0.055% active;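 active = mean normalized replicate activation at least 10% and every replicate at or above 10%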;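 note: 0% = median of on-plate neutral control wells and 100% = ellipticine 6 µM median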
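System: 68-5-11 XiGFP fibroblast line | Buffer or medium: DMEM containing 5-aza-dC | Compound: Single point | Times: Compounds 3 days, fix/stain 15 min at room temperature | Benchmarks: Positive control ellipticine, 6 µM final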
ERp5 inh = inhibitors of ERp5-driven insulin aggregation, primary screen, biochemical, turbidity, absorbance 650 nm, single point. Protein disulfide-isomerase A6 (Homo sapiens), Q15084. 90 min. inhibition, % at 9.99 µM. 350,000 tested, 0.05% active;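 active = mean replicate inhibition above about 25%, with every replicate also reaching it, limit read from the data, passing the limit was not always enough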
Target sequence (Q15084 whole entry, looked up): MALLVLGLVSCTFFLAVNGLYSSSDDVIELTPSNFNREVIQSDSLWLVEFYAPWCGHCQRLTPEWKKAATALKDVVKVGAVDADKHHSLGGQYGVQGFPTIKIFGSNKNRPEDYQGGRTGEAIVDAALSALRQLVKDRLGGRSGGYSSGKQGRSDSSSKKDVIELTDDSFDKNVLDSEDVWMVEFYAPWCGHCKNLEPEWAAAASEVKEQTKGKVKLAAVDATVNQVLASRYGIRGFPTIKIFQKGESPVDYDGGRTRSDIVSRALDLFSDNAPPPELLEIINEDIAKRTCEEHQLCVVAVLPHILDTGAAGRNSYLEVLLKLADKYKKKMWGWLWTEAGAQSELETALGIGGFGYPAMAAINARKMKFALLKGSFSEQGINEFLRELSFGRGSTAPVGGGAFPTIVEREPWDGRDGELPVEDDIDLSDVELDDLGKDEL
* = called active by the depositor; · = not tested or not shown. Only part of the results is shown (hit frequency here may not be typical).

SMILES	GSIS activator	CFTR F508del cor	Xi reactivation	ERp5 inh
COCc1cc(C)nc(SCC(=O)c2ccc(O)c(O)c2)c1C#N	4	2.2	·	4
NS(=O)(=O)c1ccc(NC(=O)Nc2ccc(Cl)cc2)cc1	-7	4.5	0.0	1
Nc1nc(Cl)c(N)c(NCC2(CO)CC(CCc3ccccc3)C2)n1 (stereo not drawn)	-39	2.0	0.0	2
Cc1ccc(S(=O)(=O)n2c(C)nc3ccccc32)cc1	-1	-1.7	0.1	0
CC[C@H]1CN2CCc3cc(OC)c(OC)cc3C2C[C@@H]1C[C@H]1NCCc2cc(OC)c(OC)cc21 (stereo partly drawn)	-7	-9.5	0.9	0
CC(=O)c1cn(Cc2ccccc2)c(=O)n(Cc2ccc(F)cc2)c1=O	-8	3.5	0.5	5
COc1cccc(C(=O)Nc2cc3c(cc2N2CCOCC2)n(C)c(=O)n3C)c1	20	-2.6	0.1	9
Cc1ccc(NC(=O)c2ccc(CN3CCN(C)CC3)cc2)cc1Nc1nccc(-c2cccnc2)n1	9	-2.6	-0.1	-8
O=C(N/N=C/c1ccc(Sc2ccccn2)o1)c1cccc([N+](=O)[O-])c1	-10	·	0.5	2
Cc1noc(NS(=O)(=O)c2ccc(N)cc2)c1C	·	-0.4	0.9	2

Quoted at random: 4 compounds from above.
SMILES	GSIS activator	CFTR F508del cor	Xi reactivation	ERp5 inh
COc1cccc(C(=O)Nc2cc3c(cc2N2CCOCC2)n(C)c(=O)n3C)c1	20	-2.6	0.1	9
COCc1cc(C)nc(SCC(=O)c2ccc(O)c(O)c2)c1C#N	4	2.2	·	4
CC(=O)c1cn(Cc2ccccc2)c(=O)n(Cc2ccc(F)cc2)c1=O	-8	3.5	0.5	5
NS(=O)(=O)c1ccc(NC(=O)Nc2ccc(Cl)cc2)cc1	-7	4.5	0.0	1

One compound at a time, as listed above. Order of screens: GSIS activator	CFTR F508del cor	Xi reactivation	ERp5 inh
Listed for CC[C@H]1CN2CCc3cc(OC)c(OC)cc3C2C[C@@H]1C[C@H]1NCCc2cc(OC)c(OC)cc21 (stereo partly drawn) : -7	-9.5	0.9	0
Listed for Cc1noc(NS(=O)(=O)c2ccc(N)cc2)c1C : ·	-0.4	0.9	2
